Rango release inh – inhibition of RanGTP-driven Rango-importin beta dissociation. O95149+P62826. Biochemical FRET Rango-importin beta, RanGTP-induced dissociation. hit rate 0.071% among 340,000. AID 540253. Potency, µM (series often up to 46.1 µM), without a hit: top-dose activity change, negative = inhibition; active means falling FRET ratio curve, often poorly fitted, with flat reads before Ran was added; inconclusive means other falling curves, or compound fluorescence or quenching; inactive means flat or rising ratio curve;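 note: potency is the fitted concentration of half-maximal effect; % of control where 0% means no effect; nearly all actives have a fitted effect of over 45% in size; -100% = wells without RanGTP and RCC1; the record marks most hits as doubtful in a second field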
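Rango/importin beta premix (0.1/0.25 uM final), PBS + 1 mM DTT + 0.02% Tween-20 + 0.1% BSA; cpd 5 min RT; FRET pre-read; + RanGTP-RCC1 (0.6 uM Ran, 2 mM GTP, 0.2 uM RCC1); 45 min RT; FRET post-read, ex 430, em 486/530 nm.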
Rango-impB inh – Rango-importin beta binding inhibition; Q14974; Rango CFP/YFP FRET sensor + importin beta, 45 min; Potency, µM (highest dose often 92.2 µM), inactives show at the highest dose inhibition of complex formation; hit rate 0.031% among 340,000; AID 540263; active = rising FRET ratio curve, often small or poorly fitted; inconclusive = mostly compound fluorescence or quenching in the first reads; inactive = flat curves in all reads;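 note: potency is the fitted concentration of half-maximal effect; 0% = DMSO wells and 100% = buffer wells lacking importin beta; nearly all actives have a fitted effect of over 15% in size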
Target sequence (Q14974 whole entry, looked up): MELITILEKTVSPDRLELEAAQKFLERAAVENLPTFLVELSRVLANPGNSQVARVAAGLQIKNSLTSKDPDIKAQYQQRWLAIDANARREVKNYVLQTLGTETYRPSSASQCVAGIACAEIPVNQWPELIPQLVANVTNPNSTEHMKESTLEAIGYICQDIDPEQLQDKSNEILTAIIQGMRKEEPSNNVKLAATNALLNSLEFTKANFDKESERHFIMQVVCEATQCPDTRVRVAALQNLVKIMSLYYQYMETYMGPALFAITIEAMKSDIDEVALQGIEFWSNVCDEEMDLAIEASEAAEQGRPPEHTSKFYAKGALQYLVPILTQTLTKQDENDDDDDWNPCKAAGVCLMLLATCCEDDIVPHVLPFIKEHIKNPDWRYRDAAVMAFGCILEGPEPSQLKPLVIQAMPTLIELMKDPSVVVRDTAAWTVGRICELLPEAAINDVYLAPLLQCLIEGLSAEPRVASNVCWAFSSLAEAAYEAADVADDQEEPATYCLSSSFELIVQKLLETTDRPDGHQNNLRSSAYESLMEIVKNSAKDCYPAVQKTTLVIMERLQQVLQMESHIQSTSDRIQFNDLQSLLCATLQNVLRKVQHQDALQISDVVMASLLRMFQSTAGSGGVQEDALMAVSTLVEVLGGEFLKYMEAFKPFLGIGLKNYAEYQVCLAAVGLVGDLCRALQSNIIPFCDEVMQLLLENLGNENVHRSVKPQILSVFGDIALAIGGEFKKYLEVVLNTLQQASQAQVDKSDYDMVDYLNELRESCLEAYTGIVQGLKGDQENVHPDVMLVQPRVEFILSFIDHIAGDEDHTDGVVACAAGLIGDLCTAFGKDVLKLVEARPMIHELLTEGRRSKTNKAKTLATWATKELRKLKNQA
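FRET biosensor (snurportin 1 IBB flanked by EYFP and cerulean), 50 nM, with compound 5 min, then 0.125 microM importin beta in PBS, 1 mM DTT, 0.02% Tween-20, 0.1% BSA. CFP/YFP ratio read after 45 min at room temperature; pre-read flags interference.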
GLA inh pH 4.5 – blocks human alpha-galactosidase A at pH 4.5 | P06280 | purified enzyme, 4-MU-alpha-Gal fluorescence, pH 4.5 | activity change, negative = inhibition, % at 105 µM | 230,000 tested, under 10 active | AID 1467; inconclusive = small, poorly fitted or top-dose-only inhibition, or a rising curve; inactive = flat fitted curve, though single readings scatter; no compound was filed as active;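 note: 0% = full activity with enzyme and -100% = basal without enzyme; dose as in the result columns while the protocol names 77 µM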
miR-21 reporter – raises the signal of a miR-21 reporter. AID 2288. HeLa miR-21 FLuc reporter, luciferase, 48 h. Potency, µM (doses to about 38.3 µM), for the others: at the top dose reporter change, positive = more light. 340,000 tested, under 10 active; active = well fitted rising curve with a large enough effect; inconclusive = small, poorly fitted or top-dose-only effect; inactive = no such curve, though single readings can be large or run the other way;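 note: % of control where 0% means no effect; miR-21 action dims this reporter so a rising signal means less miR-21 action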
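HeLa cells endogenously expressing miR-21, stably carrying CMV-driven firefly luciferase with a downstream miR-21 binding site, 2000 cells/well. Titrations up to approximately 40 uM, 48 hours; luciferase luminescence read.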
* hit, by the source's call; ? = inconclusive; . = no result given; & = joins results of further samples. Some of the compounds tested (hit frequency here may not be typical).

Order of results – Rango release inh | Rango-impB inh | GLA inh pH 4.5 | miR-21 reporter
[1] COc1ccccc1C(=O)Nc1ccnn1C1CCN(Cc2cnn(C)c2C)CC1
    2% | 4.3% | . | 0%
[2] COc1ccc(NC(=O)NCCCN2CCN(c3ccccc3F)CC2)cc1
    1% | -4.2% | 0 | 0%
[3] CC(=O)Oc1ccc(C(=O)O)cc1OC(C)=O
    2% | -2.3% | 1 | -4%
[4] CCOc1ccc(C(=O)OCC(=O)NC(C)C)cc1
    19% | 3.5% | -20 | -5%
[5] Cc1nc(-c2ccccc2Cl)sc1C(=O)/C=C/N(C)C
    0% | -1.2% | 0 | -50%
[6] Clc1ccc(C2CC(c3ccccc3)Nc3ncnn32)cc1 (stereo not drawn)
    -3% | -5.0% | -5 | 1%
[7] O=c1[nH]c(=O)c2cc3ccccc3nc2[nH]1
    ? | ? | . | .
[8] O=[N+]([O-])c1cccc(-c2n[nH]c(=S)n2Cc2ccccc2)c1
    28% | 4.8% | -3 | -5%
[9] COCCN(C(=O)COC(=O)Cc1cccc(OC)c1)c1c(N)n(Cc2ccccc2)c(=O)[nH]c1=O
    9% | 6.0% | . | .
[10] CC(=O)c1ccc(N=C2NC(=O)C(CO)(CO)S2)cc1
    3% | -0.6% | . | 0%
[11] CCOc1ccc(NC(=O)CN(C)C(=O)c2cc([N+](=O)[O-])ccc2Sc2ccccc2)cc1OCC
    3% | 0.4% | . | .
[12] Brc1ccc(C2=CC(c3ccco3)n3nnnc3N2)cc1 (stereo not drawn)
    -8% | 0.0% | 7 | -5%
[13] CC(=O)c1cccc(NC(=O)c2ccncc2)c1
    0% | 4.0% | 2 | 0%
[14] CCCCCCCCCCCCCCCC(=O)NCCO
    -14% | 0.4% | -8&-2&-4&0 | .
[15] Cc1cc(/C=N/NC(N)=S)c(C)n1-c1ccc(Br)cc1
    -8% | ? | 11 | 2%
[16] CCOC(=O)c1cc(C)[nH]c(=S)c1C#N
    -1% | -0.6% | 9 | -3%
[17] COc1cc(C(=O)Nc2ccc3c(c2)C(=O)c2ccccc2C3=O)cc(OC)c1OC
    11% | 0.0% | -15 | -15%
[18] CC(C)CN(C(=O)COC(=O)CCC(=O)c1ccc(F)cc1)c1c(N)n(Cc2ccccc2)c(=O)[nH]c1=O
    0% | -0.6% | . | .
[19] Cc1cc2ccccc2n2c(SCC(=O)Nc3ccc(S(=O)(=O)N4CCCCC4)cc3)nnc12
    1% | 2.1% | 0 | -12%
[20] c1ccc2c(c1)Cc1cc3ccccc3nc1-2
    4% | -0.2% | -10 | -52%
[21] CSc1nc2nc(-c3cccc(C(F)(F)F)c3)ccn2n1
    2% | -0.7% | -9 | -1%
[22] Cc1ccc(Cl)c(NC(=O)CCl)c1Cl
    -2% | -2.5% | -4 | 11%
[23] CCOC(=O)C1(Cc2cccc(F)c2)CCN(Cc2c(C)nn(CC)c2C)CC1
    2% | 1.0% | -4 | 16%
[24] COC(=O)Cc1ccc(OCC(=O)Nc2ccc(OC(F)(F)F)cc2)cc1
    3% | 3.6% | 3 | -8%
[25] COc1cc(Cl)c(C)cc1NC(=O)Cc1cccs1
    7% | -2.8% | . | -12%
[26] CC(=O)NN1C(=O)c2ccc(Oc3ccc4c(c3)C(=O)N(NC(C)=O)C4=O)cc2C1=O
    . | . | 4 | -4%
[27] CC1CN(C(=O)N[C@@H](Cc2ccccc2)C(=O)O)CC(C)O1 (stereo partly drawn)
    -12% | 1.1% | 1 | -6%
[28] COc1ccccc1CNC(=O)Cn1cc(Br)ccc1=O
    12% | -0.9% | . | -13%
[29] Cc1ccc(C(=O)C[n+]2ccccc2)cc1
    -1% | -2.3% | . | -16%
[30] CN(C)CCOC1c2ccccc2C=Cc2ccccc21
    1% | ? | . | .

Some values from above.
Cc1cc2ccccc2n2c(SCC(=O)Nc3ccc(S(=O)(=O)N4CCCCC4)cc3)nnc12 in Rango release inh: 1%
COCCN(C(=O)COC(=O)Cc1cccc(OC)c1)c1c(N)n(Cc2ccccc2)c(=O)[nH]c1=O in Rango-impB inh: 6.0%
Brc1ccc(C2=CC(c3ccco3)n3nnnc3N2)cc1 (stereo not drawn) in GLA inh pH 4.5: 7
O=[N+]([O-])c1cccc(-c2n[nH]c(=S)n2Cc2ccccc2)c1 in Rango release inh: 28%
Clc1ccc(C2CC(c3ccccc3)Nc3ncnn32)cc1 (stereo not drawn) in GLA inh pH 4.5: -5

Full records, quoted from the list:
COc1cc(Cl)c(C)cc1NC(=O)Cc1cccs1 is entered as Rango release inh: 7%; Rango-impB inh: -2.8%; GLA inh pH 4.5: .; miR-21 reporter: -12%
Brc1ccc(C2=CC(c3ccco3)n3nnnc3N2)cc1 (stereo not drawn) is entered as Rango release inh: -8%; Rango-impB inh: 0.0%; GLA inh pH 4.5: 7; miR-21 reporter: -5%

(next part)
Order of results – Rango release inh | Rango-impB inh | GLA inh pH 4.5 | miR-21 reporter
[31] CCOC(=O)N1CCN(C(=O)C2CCC(=O)N(Cc3cccc(C(F)(F)F)c3)C2)CC1 (stereo not drawn)
    -22% | ? | . | -1%
[32] CCc1ccc(S(=O)(=O)Nc2ccncc2)cc1
    18% | 4.5% | . | -2%
[33] COc1ccccc1NC(=S)N(Cc1ccccc1)Cc1cccnc1
    1% | ? | -3 | -3%
[34] Cc1onc(-c2c(Cl)cccc2Cl)c1C(=O)N1CCSCC1
    -7% | 0.0% | -1 | 4%
[35] Cc1ccc(S(=O)(=O)N2CC(=O)Nc3ccccc32)cc1
    -7% | 2.8% | 3 | 2%
[36] Cc1ccc(-c2cc(C(=O)Nc3cc(C)on3)no2)cc1
    -1% | -1.7% | 6 | ?
[37] Cc1ccc(C)c(Cn2nnc3c(=O)[nH]c(C4CCN(S(=O)(=O)c5ccc(S(=O)(=O)N(C)C)cc5)CC4)nc32)c1
    -4% | -2.9% | . | 1%
[38] CCCCNC(=O)Cn1nc(C)c(S(=O)(=O)N2CCOCC2)c1C
    9% | 3.6% | . | .
[39] CCCn1nnc(NC(=S)NC(=O)/C=C/c2ccco2)n1
    -15% | -5.5% | -5 | 4%
[40] COc1ccc(/C=C/C(=O)N2CCN(c3ccccc3)CC2)cc1S(=O)(=O)N1CCOCC1
    -7% | -0.7% | -8 | 25%
[41] COCCCNC(=O)c1cn(-c2cccc(OC)c2)c(=O)c2ccccc12
    1% | 0.0% | . | 1%
[42] CC(NC(=O)c1ccccc1F)c1nnc(SCC(=O)NC2CCCCC2)n1C (stereo not drawn)
    -12% | -0.9% | . | 9%
[43] COc1cc2c(cc1OC)C(c1cc(Br)ccc1O)N(C(C)=O)CC2 (stereo not drawn)
    1% | 2.5% | . | .
[44] O=C(C1=NN[C@@H]2C(=O)N(c3ccccc3C(F)(F)F)C(=O)[C@H]12)C(c1ccccc1)c1ccccc1
    3% | -0.4% | -5 | -1%
[45] C#CCOCCOCCOCCNc1nc(N2CCN(C(=O)Cn3cc(CCCCN)nn3)CC2)nc(N2CCN(C(=O)[C@H]([C@@H](C)CC)n3cc(CCCCN)nn3)CC2)n1
    14% | ? | . | .
[46] NS(=O)(=O)c1ccc(NC(=O)COC(=O)c2cn(-c3ccccc3)nc2-c2ccccc2)cc1
    -8% | 0.3% | 5 | -5%
[47] CCN(c1cccc(C)c1)S(=O)(=O)c1ccc(-c2cc(C)no2)s1
    -3% | 4.7% | . | 22%
[48] CCOC(=O)CC1COCCN1C(=O)CCc1nnc(-c2ccsc2)o1 (stereo not drawn)
    5% | 5.7% | 1 | -14%
[49] O=C(CN1CCSCC1)N/N=C/c1ccc(F)cc1
    -8% | 0.2% | 1 | -2%
[50] CCCc1cc2c(cc1NC(=O)c1ccccc1F)OCO2
    1% | -0.5% | 13 | -22%
[51] CC1CCN(C(=O)c2cc(S(=O)(=O)N3CCOCC3)ccc2N2CCCC2)CC1
    15% | -1.0% | . | .
[52] CCCn1c(N)c(C(=O)CSc2n[nH]c(-c3ccc(C)cc3)n2)c(=O)[nH]c1=O
    0% | -0.4% | . | .
[53] CCN(Cc1cn2cccnc2n1)C1CCCCC1
    -9% | -2.0% | 4 | -4%
[54] CCn1c(SCC(=O)O)nnc1-c1ccc(S(=O)(=O)N2CCCC2)cc1
    4% | -0.5% | . | -2%
[55] Cc1noc(NS(=O)(=O)c2ccc(NC(=O)CSc3nnc(-c4ccccc4)n3C3CCCCC3)cc2)c1C
    2% | ? | 5 | 28%
[56] CCC1SC2=NC(C)=C(C(=O)OCC(C)C)C(/C=C/c3ccccc3OC)N2C1=O (stereo not drawn)
    -3% | 0.3% | 0 | -14%
[57] FC(F)(F)c1cc(-c2ccccc2)nc2ncnn12
    0% | -2.7% | -7 | -13%
[58] COC(=O)c1c(C(=O)OC)c(-c2cccc(F)c2)n2c1CS(=O)C2 (stereo not drawn)
    18% | -1.6% | . | 1%
[59] COc1ccc(S(=O)(=O)N(C)C[C@H]2Oc3ccc(NC(=O)Cc4ccccc4)cc3C(=O)N([C@H](C)CO)C[C@@H]2C)cc1
    1% | -3.8% | . | .
[60] O=C(COC(=O)[C@@H]1CCCN1S(=O)(=O)c1ccc(Cl)cc1)NC1CCS(=O)(=O)C1 (stereo partly drawn)
    22% | 1.9% | . | .
[61] Cc1ccc(NC(=O)CCSc2nnc(C)s2)cc1
    4% | 1.6% | 7 | -16%
[62] Cc1ccc(S(=O)(=O)N2CCCCC2)cc1NC(=O)COC(=O)c1cc[n+]([O-])cc1
    -1% | 0.1% | 2 | -4%
[63] COc1ccc(-c2nc(CN3CCCC(C(=O)NC4CCCC4)C3)c(C)o2)cc1 (stereo not drawn)
    -12% | 6.6% | -4 | -1%
[64] O=C(NNC(=O)c1ccccc1-n1cccc1)c1ccc(F)cc1
    -1% | 1.0% | 1 | -1%
[65] Cc1cccc(C)c1NC(=O)CCc1nnc2ccc(N3CCCC3)nn12
    8% | -0.2% | . | 1%
[66] COC(=O)c1ccccc1NC(=S)N(Cc1ccc2c(c1)OCO2)Cc1cc2cccc(C)c2[nH]c1=O
    -5% | -1.2% | 5 | -3%
[67] CCN(CC)CCCNC(=O)c1cc2c(-c3ccc(Cl)cc3)nn(C)c2s1
    -2% | -0.2% | -9 | ?
[68] COC(=O)C(NC(=O)c1ccccc1C)(Nc1ncc(S(=O)(=O)c2ccc([N+](=O)[O-])cc2)s1)C(F)(F)F (stereo not drawn)
    0% | -3.9% | -6 | 18%
[69] OC(COc1ccc(OCc2ccccc2)cc1)CN1CCCCC1 (stereo not drawn)
    -5% | -0.2% | -6 | -59%
[70] CCOC(=O)c1c(C)[nH]c(C(=O)CN2C(=O)NC(C)(CC(C)C)C2=O)c1C (stereo not drawn)
    11% | 0.4% | -10 | -2%
[71] COc1ccc(CCNc2ccc(C(CC(N)=O)NC(=O)c3ccccc3)cc2[N+](=O)[O-])cc1 (stereo not drawn)
    -10% | -2.0% | 1 | -1%

Random excerpt: 2 records from the list, in no set order.
Order of results – Rango release inh | Rango-impB inh | GLA inh pH 4.5 | miR-21 reporter
[67] CCN(CC)CCCNC(=O)c1cc2c(-c3ccc(Cl)cc3)nn(C)c2s1
    -2% | -0.2% | -9 | ?
[71] COc1ccc(CCNc2ccc(C(CC(N)=O)NC(=O)c3ccccc3)cc2[N+](=O)[O-])cc1 (stereo not drawn)
    -10% | -2.0% | 1 | -1%

Screens: PubChem BioAssay, National Center for Advancing Translational Sciences (NCATS)
